# AF4-AF9 inh: inhibitors of AF4 peptide binding to AF9, primary screen, biochemical, AlphaScreen, biotin-AF4 peptide, FLAG-AF9, single point | inhibition, % at 10 µM | 0.47% of 350,000 active | Protein AF-9 (Homo sapiens), P42568;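 active = every replicate reaching a set inhibition limit, whatever the replicate mean, cut at about 25% in these data; inconclusive = mean inhibition reaches that limit but some replicates miss it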;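 note: 0% = plate neutral control median and 100% = total signal loss; the record names both 10 and 1 µM as test concentration; the first replicate is given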
# Target sequence (P42568 whole entry, looked up): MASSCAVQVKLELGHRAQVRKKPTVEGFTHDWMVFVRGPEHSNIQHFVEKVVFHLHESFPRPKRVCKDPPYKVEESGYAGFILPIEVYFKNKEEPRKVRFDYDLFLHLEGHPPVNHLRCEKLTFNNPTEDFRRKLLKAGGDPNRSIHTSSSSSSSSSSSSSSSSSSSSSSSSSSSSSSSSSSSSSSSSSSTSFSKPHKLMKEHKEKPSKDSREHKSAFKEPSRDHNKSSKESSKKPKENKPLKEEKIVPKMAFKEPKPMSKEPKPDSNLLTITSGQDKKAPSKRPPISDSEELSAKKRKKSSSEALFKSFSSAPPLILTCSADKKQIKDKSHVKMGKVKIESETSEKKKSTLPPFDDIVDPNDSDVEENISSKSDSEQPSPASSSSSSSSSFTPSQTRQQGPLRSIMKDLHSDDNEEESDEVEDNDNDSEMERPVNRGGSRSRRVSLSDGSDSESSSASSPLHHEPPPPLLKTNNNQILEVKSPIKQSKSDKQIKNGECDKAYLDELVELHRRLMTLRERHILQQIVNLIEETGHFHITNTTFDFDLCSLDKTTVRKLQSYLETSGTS
# HNF4A DNA FP: change in binding of human HNF4A to DNA, primary screen, biochemical, fluorescence polarization, FITC-DNA | 0.3% of 360,000 active | Hepatocyte nuclear factor 4-alpha (Homo sapiens), P41235 | 1 h | activity change, % at 10 µM; in the data active = activity change above about 30%, passing the limit was not always enough;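 note: controls were the assay level and a saturating level of protein; the project sought stronger binding though the title names inhibitors; some compounds called inactive have numbers as strong as hits; positive values seem to mean higher polarization but the record does not say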
# UCH37 inh: inhibitors of human UCH37 deubiquitinase, primary screen, biochemical, Ub-AMC cleavage, fluorescence; inhibition, % (test concentration not listed); AID 588478, 2011; 0.33% of 330,000 active; purified proteasome/UCH37; Ubiquitin carboxyl-terminal hydrolase isozyme L5 (Homo sapiens), Q9Y5K5;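 active = mean of two replicates above 20%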;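 note: 0% = compound-free wells with enzyme and 100% = wells lacking proteasome; stock transfer was 100 nL into about 20 µL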
# Target sequence (Q9Y5K5 whole entry, looked up): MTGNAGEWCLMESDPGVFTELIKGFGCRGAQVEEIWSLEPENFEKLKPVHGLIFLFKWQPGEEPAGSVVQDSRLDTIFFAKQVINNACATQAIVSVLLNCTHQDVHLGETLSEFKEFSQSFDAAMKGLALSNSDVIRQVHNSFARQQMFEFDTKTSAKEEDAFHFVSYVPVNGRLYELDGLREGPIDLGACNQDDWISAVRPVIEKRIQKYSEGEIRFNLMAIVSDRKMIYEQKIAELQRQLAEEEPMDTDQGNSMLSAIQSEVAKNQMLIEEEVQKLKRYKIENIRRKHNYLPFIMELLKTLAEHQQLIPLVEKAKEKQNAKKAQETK
#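 system = Proteasome-associated human UCH37 deubiquitinase | amount = 0.15 nM proteasome as dispensed | medium = pH 7.4 Tris-HCl (50 mM) with ovalbumin, ATP-MgCl2, DTT | incubation = 30 min preincubation with enzyme, 25 min cleavage at room temperature | detection = AMC fluorescence 355/460 nm | read-out basis = percent inhibition | controls = no-proteasome and no-compound wells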
# Vif TR-FRET: inhibitors of Vif binding to APOBEC3G peptide, primary screen, biochemical, TR-FRET, GST-Vif 1-94, biotin-A3G peptide, dose response retest (AID 1117319); Virion infectivity factor (Human immunodeficiency virus type 1 group M subtype B (isolate …; inhibition, %, or IC50 in µM where a hit was titrated; 0.57% of 260,000 active; TR-FRET GST-Vif / biotin-A3G peptide binding; higher % means a stronger effect; test concentration not given here; strong numbers were not always called active;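 active = above the screen mean plus three standard deviations and confirmed in dose response; inconclusive = results disagree or hit not tested in dose response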;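 note: Vif residues 1-94 fused to GST binding biotinylated APOBEC3G peptide 110-148; 0% = full assay without inhibitor and 100% = GST in place of GST-Vif; retest series ran down from 100 µM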
# FGF22 binding: binders of human FGF22 protein, primary screen, FGF22 synaptogenesis inhibitor project, biophysical, thermal shift, single point; Fibroblast growth factor 22 (Homo sapiens), Q9HCT0; recombinant FGF22 thermal shift, SYPRO orange fluorescence; percent of sucrose octasulfate shift, DMSO zero; calls only at 9.99 µM; 1.5% of 340,000 active; AID 651658, 2012;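 active = melting point raised past a set limit in the mean and every replicate; inconclusive = no clear call; three in four hits are not shown here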
# Target sequence (Q9HCT0 whole entry, looked up): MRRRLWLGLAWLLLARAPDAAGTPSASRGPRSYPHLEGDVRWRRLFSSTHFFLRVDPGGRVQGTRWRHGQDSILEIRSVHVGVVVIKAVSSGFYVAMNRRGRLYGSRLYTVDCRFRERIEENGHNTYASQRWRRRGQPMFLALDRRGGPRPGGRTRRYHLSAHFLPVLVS
# Ecoli growth: E. coli growth inhibition, primary screen, OD600; AID 1053175, 2014; OD600 absorbance (test concentration not listed); 0.21% of 330,000 active; Escherichia coli growth, 23 h; stronger effect = lower value;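 active = OD600 absorbance below the run mean of sample wells minus 3.6 SD, in any replicate, cut at about 0.56 in these data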;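 note: stock transfer was 300 nL into about 60 µL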
# RanGTP-Imp inh: inhibitors of RanGTP-importin-beta interaction, primary screen, biochemical, FRET, CFP-Ran, YFP-importin-beta, homogeneous | Ran GTPase (GTP-bound) - importin-beta complex | 1.1% of 300,000 active | cell-free CFP-Ran/YFP-importin-beta FRET ratio | inhibition, % (no concentration beside the values) | AID 2216, 2009;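 active = most replicates above 15%; inconclusive = exactly half above 15%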;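 note: 0% = DMSO wells and 100% = Ran loaded with GDP instead of GTP; wells of about 40 µL received 100 nL stock; the first replicate is given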
# Starred values were filed as active, the others as inactive; i = inactive; ? = inconclusive; / = not tested or not shown.
SMILES,AF4-AF9 inh,HNF4A DNA FP,UCH37 inh,Vif TR-FRET,FGF22 binding,Ecoli growth,RanGTP-Imp inh
O=[N+]([O-])c1ccc(OCc2cnc(Cl)s2)c([N+](=O)[O-])c1,7.5,-3.8,1.6,2%,i,0.67,-0.1
O=C(Nc1cccc(-c2cn3ccccc3n2)c1)C1CC1,/,0.5,-25,8%,/,0.66,3.6
COc1cccc(/C=N/NC(=O)CO/N=C(\C)c2cccs2)c1OC,-0.3,-0.1,/,-1%,i,/,-0.8
Cc1cc(Cl)c(OCCN2C(=O)NC(C)(C)C2=O)c(Br)c1,/,-0.7,-0.3,-2%,/,0.71,-2.0
CCOC(=O)c1c(NC(=O)CC)sc2c1CCN(Cc1ccccc1)C2,6.6,5.8,-1.5,/,i,0.72,89*
CC(/C=N/NC(=O)c1cccc([N+](=O)[O-])c1)=C\c1ccccc1,/,-1.9,/,5%,/,/,-0.9
COc1ccc(C(C(=O)NC(C)(C)C)N(Cc2ccc(C)cc2)C(=O)CCC(=O)Nc2cc(C)on2)cc1 (stereo unspecified),-1.2,-0.1,3.6,-5%,i,0.74,?
COc1ccc(CN2C(=O)CSC2c2ccccn2)cc1 (stereo unspecified),1.4,-0.5,5.0,?,i,0.7,2.6
CS(=O)(=O)N(Cc1ccc(C(=O)NCc2ccco2)cc1)c1ccccc1,/,-2.1,4.6,27%,/,0.66,2.5
CCOc1ccc(NC(=O)CCC(=O)c2ccc(F)cc2)cc1,-0.8,-0.2,3.6,-6%,i,0.69,-4.1
C/C(=C\COc1ccc2ccc(=O)oc2c1)CC[C@@H](O)C(C)(C)O,-1.1,-0.9,-1.2,/,i,0.8,/
COCCNC(=O)C(=O)NNC(=O)COc1ccc(OC)cc1,-2.4,2.2,/,/,i,/,-0.5
NC(CCc1ccccc1)c1csc(NC(=O)Nc2cccc(C(F)(F)F)c2)n1 (stereo unspecified),17,-1.8,/,/,i,/,/
O=C(CNC(=O)C12CC3CC(CC(C3)C1)C2)N1CCCC(C(F)(F)F)C1 (stereo unspecified),16,3.9,/,/,i,/,/
COCCCn1c(=O)c2sccc2n2c(CCCC(=O)NCC3CCCO3)nnc12 (stereo unspecified),-0.4,-0.9,0.0,6%,i,0.67,-5.6
O=C(CN1CCOCC1)NNc1c2ccccc2nc2ccccc12,5.6,-0.6,5.2,8%,i,0.63,19*
CCCCSCCCNC(=O)c1ccc(CS(=O)(=O)c2ccccc2OC)o1,1.6,-3.9,2.2,-10%,i,0.68,-1.2
O=C(Nc1ncccn1)c1ccc([N+](=O)[O-])cc1[N+](=O)[O-],-1.6,2.3,8.1,/,i,0.61,-0.5
Cc1ccccc1-n1nnnc1SCc1csc(-c2ccccc2)n1,/,2.0,-0.8,-3%,/,0.73,0.1
CN(CCc1ccccn1)C(=O)CCC1CCCN(Cc2ccccc2OC(F)F)C1 (stereo unspecified),-3.3,2.9,0.4,-11%,i,0.73,3.2
Cc1ccc(NC(=O)OC(C)CNC(=O)Oc2cccc(C)c2)cc1 (stereo unspecified),-1.9,-2.5,4.7,-9%,i,0.63,2.3
CC(C)C[C@H]1COc2cccc(N3CCC[C@H]3CO)c2S(=O)(=O)N1,-1.0,-1.9,/,/,i,/,/
CCOC(=O)c1nn(-c2ccc(Cl)cc2)c2nc(CC)c(C#N)c(=O)n12,/,5.8,-34,/,/,0.71,-1.7
CCN(CC)c1ccc(C2=NNC(=O)CC2C)cc1[N+](=O)[O-] (stereo unspecified),1.4,-1.5,10,-1%,/,0.72,1.0
COc1ccc2sc3ccccc3c(=O)c2c1OC,/,0.4,-3.0,18%,/,0.72,-18
CCn1c(SCC(=O)NC2CCCC2)nnc1C(C)NC(=O)c1ccccc1Br (stereo unspecified),-5.4,2.8,6.4,/,i,0.67,?
CCc1nnc(NC(=O)CSc2nc(SC)ns2)s1,-0.3,0.2,3.1,-3%,i,0.7,2.5
COCCCN1C(=O)C(CC(=O)NCCCN(C)C)CC(C(=O)N(C(C)C)C(C)C)=C1C (stereo unspecified),0.5,-3.3,/,/,i,/,/
CCOC(=O)C1=C(N)OC2=C(C(=O)CC(C)C2)C1c1cccnc1 (stereo unspecified),/,0.3,-2.3,-1%,/,0.65,-2.8
CCCCn1c(N)c(-c2nc3ccccc3o2)c2c([N+](=O)[O-])nn(C)c(=O)c21,-1.8,-31,3.6,-8%,i,0.7,1.5
COc1ccc(S(=O)(=O)Nc2cccc(S(=O)(=O)N3CCCC3)c2)cc1OC,2.0,-6.5,0.3,4%,i,0.61,-0.2
CC(NC(=O)c1ccco1)c1ccc(-n2ccnc2)cc1 (stereo unspecified),3.6,-4.8,5.4,4%,i,0.68,7.8
O=C(COC(=O)c1cccc(F)c1)Nc1ccc(Cl)cn1,0.9,4.9,1.0,/,i,0.66,/
Cc1cccc(-n2c(-c3ccncc3)n[nH]c2=S)c1,/,-1.1,3.3,5%,/,0.7,7.2
CSc1ccc(/C=C/C(=O)c2ccc(NC(=O)C(C)C)cc2)cc1,/,7.4,-4.4,16%,/,0.77,-7.8
Cc1ccc(C(=O)NNC2CC(=O)N(c3ccc4c(c3)OCCO4)C2=O)cc1 (stereo unspecified),-0.6,-1.1,0.2,/,i,0.59,18*
O=C(c1nc2ccccc2[nH]1)c1ccccc1[N+](=O)[O-],1.3,-1.9,9.8,0%,i,0.71,1.9
Cn1c(=O)n(CCO)c(=O)c2c1nc(Br)n2Cc1ccccc1,-3.2,-2.8,4.1,/,i,0.7,-1.6
COc1ccc(Nc2ncnc3nc[nH]c23)cc1OC,/,-2.8,4.7,-1%,/,0.67,-4.9
N#CCSc1nnc(Cc2cccc3ccccc23)n1C1CCCCC1,/,-0.9,5.5,-2%,/,0.73,0.6
Cc1c(C(=O)Nc2ccncc2)oc2ccccc12,/,0.9,1.7,-4%,/,0.72,3.9
CCCn1c(=O)c(C(=O)OCC)c(O)c2cc(Br)ccc21,/,-5.8,3.8,5%,/,0.73,5.1
Cn1cccc1/C=C1\SC(=S)N(NC(=O)c2ccccc2)C1=O,7.1,86*,11,23%,i,0.68,/
CC(=O)NC12CC3CC(C1)CC(C(=O)OCC(=O)Nc1c(F)cccc1F)(C3)C2,-0.8,5.5,4.0,3%,i,0.62,/
CCOCCCNC(=O)c1ccc(CS(=O)(=O)c2cccc(C(F)(F)F)c2)o1,-1.6,3.8,1.9,-1%,i,0.7,1.3
OCC(O)C1OC(c2ccco2)OC(CO)C1O (stereo unspecified),-3.4,1.6,0.8,-3%,i,0.66,/
COc1ccc(NC(=O)C2(C)CCN2Cc2ccc(OC)c3ccccc23)cc1OC (stereo unspecified),8.3,3.4,/,/,i,/,/
O=C(Cn1nnc(-c2ccccc2)n1)NNC(=O)c1ccccc1,-2.8,-3.8,-1.0,-5%,i,0.68,-1.9
CC(C)CC(C(=O)O)C(C)CC(=O)Nc1ccn(-c2ccccc2)n1 (stereo unspecified),/,3.8,0.1,26%,/,0.76,4.4
CC1CCCC(C)N1C(=O)COC(=O)c1cncc(Br)c1 (stereo unspecified),0.3,1.3,0.0,2%,i,0.67,/
COc1ccccc1NC(=O)CS(=O)(=O)c1cccc2nsnc12,/,-1.3,0.7,17%,/,0.73,1.5
Cc1csc2c(N3CCN(C(=O)Nc4ccc(Cl)c(Cl)c4)CC3)ncnc12,-2.6,3.2,0.5,-4%,i,0.68,-1.1
CCN=C1SC(CC(=O)NCc2ccccc2)C(=O)N1CC (stereo unspecified),-1.6,2.6,2.8,12%,i,0.71,1.4
Cc1ccc([N+](=O)[O-])cc1NC(=O)C(C)NS(=O)(=O)c1ccc(F)cc1 (stereo unspecified),-2.6,5.5,1.9,4%,i,0.66,4.2
COc1cccc(C(O)c2nc(-c3cccc(C(F)(F)F)c3)cs2)c1 (stereo unspecified),-0.6,3.3,/,/,i,/,/
Cc1ccc(S(=O)(=O)N(C)c2ccc(C(=O)N3CCCCC3)cc2)cc1,/,2.4,1.2,-2%,/,0.69,2.0
O=C(CSc1ncnc2nc[nH]c12)N1CCN(c2ccccc2)CC1,/,-4.8,1.5,15%,/,0.71,-2.9
O=C(Nc1ccc(-n2ccc(C(F)(F)F)n2)cc1)c1cccs1,0.6,-3.1,1.3,9%,i,0.69,1.7
CC(NC(=O)C1(C)CC1(Br)Br)C(C)(C)C (stereo unspecified),/,0.0,1.5,-2%,/,0.72,?
COC1CCCCC1Nc1cc(C)ccc1C (stereo unspecified),12,-1.5,3.2,2%,i,0.7,6.4
# Further structures
SMILES,AF4-AF9 inh,HNF4A DNA FP,UCH37 inh,Vif TR-FRET,FGF22 binding,Ecoli growth,RanGTP-Imp inh
COC(C(=O)NC1CC1)c1ccccc1 (stereo unspecified),2.5,-1.1,2.1,10%,i,0.7,-2.4
O=C(NCC1COc2ccccc2O1)C1CCN(S(=O)(=O)c2cccc3nsnc23)CC1 (stereo unspecified),/,1.4,4.2,15%,/,0.72,-0.9
Cc1cccc(/N=C/c2c(C)[nH]n(-c3ccccc3)c2=O)n1,0.6,-0.4,/,0%,i,/,1.2
Cc1cccc(NC(=S)NC(=O)c2cccs2)n1,/,-6.4,0.9,?,/,0.67,0.5
Cc1cccnc1NC(=O)c1ccc2c(c1)OCO2,-6.0,4.0,3.1,-9%,i,0.69,0.0
O=c1cc(CN2CCN(c3cccc(Cl)c3)CC2)c2cc3c(cc2o1)CCCC3,/,2.3,-3.2,-4%,/,0.73,-0.7
COc1cccc2[nH]c3c(Cl)ncnc3c12,0.2,-0.2,-312,8%,i,0.66,2.6
Cc1ccc(C2C(C(=O)c3cccs3)=C(O)C(=O)N2c2cccc(C)n2)cc1 (stereo unspecified),4.8,4.0,5.9,-17%,i,0.68,6.3
COc1ccc(/C=N\NC(=O)c2ccccc2)cc1COc1ccc(F)cc1,-0.2,-0.7,/,/,i,/,-1.8
Cc1ccc(CNC(=O)CCS(=O)(=O)c2cccc3nonc23)cc1,/,-6.6,2.1,4%,/,0.71,1.0
CCN(CCCNC(=O)CCNC(=O)Cn1cnc2ccccc2c1=O)c1ccccc1,/,0.5,1.7,33%,/,0.74,-1.4

# Entries shown so far that have a tert-butyl group:
SMILES,AF4-AF9 inh,HNF4A DNA FP,UCH37 inh,Vif TR-FRET,FGF22 binding,Ecoli growth,RanGTP-Imp inh
COc1ccc(C(C(=O)NC(C)(C)C)N(Cc2ccc(C)cc2)C(=O)CCC(=O)Nc2cc(C)on2)cc1 (stereo unspecified),-1.2,-0.1,3.6,-5%,i,0.74,?
CC(NC(=O)C1(C)CC1(Br)Br)C(C)(C)C (stereo unspecified),/,0.0,1.5,-2%,/,0.72,?

# Looked up above:
# Value for `CSc1ccc(/C=C/C(=O)c2ccc(NC(=O)C(C)C)cc2)cc1` under Ecoli growth: 0.77
# Value for `CCOC(=O)c1nn(-c2ccc(Cl)cc2)c2nc(CC)c(C#N)c(=O)n12` under RanGTP-Imp inh: -1.7
# Value for `O=[N+]([O-])c1ccc(OCc2cnc(Cl)s2)c([N+](=O)[O-])c1` under Ecoli growth: 0.67
# Value for `O=C(CSc1ncnc2nc[nH]c12)N1CCN(c2ccccc2)CC1` under UCH37 inh: 1.5
# Value for `COc1ccccc1NC(=O)CS(=O)(=O)c1cccc2nsnc12` under RanGTP-Imp inh: 1.5
# Value for `Cc1cccnc1NC(=O)c1ccc2c(c1)OCO2` under Vif TR-FRET: -9%

# Compound activity: PubChem BioAssay, several laboratories

# The list is partial. The share of hits here may be higher or lower than overall.
